From PubChem BioAssay
RE007 growth inh = less growth of the S. pombe RE007 Vpr strain | 0.21% of 360,000 active | S. pombe RE007 Vpr strain, BacTiter-Glo ATP luminescence, 24 h; control for the full effect not named in the record | Potency, µM (titrated, usually from 92.2 µM), without a hit: top-dose activity change, negative = less growth; active = well fitted falling curve with a large enough effect; inconclusive = small, poorly fitted or top-dose-only effect; inactive = no such curve, though single readings can be large or run the other way;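 further: on the % scale 0 is the no-effect control and ±100 the full control effect; nearly all actives have a fitted effect of over 50% in size; the assay follows cell death caused by Vpr and the record does not say whether a fall means rescue or toxicity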
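Fission yeast RE007 carrying one integrated HIV-1 vpr copy, seeded at OD 0.01 in PMG+AL medium with 23 nL pinned compound. Grown 24 h at 30 degrees; viability read by BacTiter-Glo luminescence after 5 min.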
SARS PLP yeast = SARS-CoV PLP inhibition in yeast; S. cerevisiae expressing SARS-CoV PLpro, growth rescue; control for the full effect not named in the record; 0.19% of 330,000 active; Potency, µM (top dose mostly 32.9 µM), for the others: top-dose activity, positive = growth rescue; further: 0% is about no effect; nearly all actives have a fitted effect of over 55% in size; growth read by luminescence after 48 h
Cruzain noTriton = inhibitors of Trypanosoma cruzi cruzain without detergent. 2.3% of 200,000 active. P25779. purified cruzain, Z-FR-AMC fluorescence, no detergent. Potency, µM, for the others: max response, negative = inhibition, usual class: inhibitors; active means well fitted curve in the direction sought with a large enough effect; inconclusive means small, poorly fitted or top-dose-only effect, or another doubt; inactive means no such curve, though single readings can be large; an effect the other way counts as inactive or inconclusive;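 further: plate controls were enzyme without inhibitor for no effect and buffer without enzyme for full effect; nearly all actives have a fitted effect of over 40% in size; top concentration of the series not given in the record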
Target sequence (P25779 123-467 limits assumed): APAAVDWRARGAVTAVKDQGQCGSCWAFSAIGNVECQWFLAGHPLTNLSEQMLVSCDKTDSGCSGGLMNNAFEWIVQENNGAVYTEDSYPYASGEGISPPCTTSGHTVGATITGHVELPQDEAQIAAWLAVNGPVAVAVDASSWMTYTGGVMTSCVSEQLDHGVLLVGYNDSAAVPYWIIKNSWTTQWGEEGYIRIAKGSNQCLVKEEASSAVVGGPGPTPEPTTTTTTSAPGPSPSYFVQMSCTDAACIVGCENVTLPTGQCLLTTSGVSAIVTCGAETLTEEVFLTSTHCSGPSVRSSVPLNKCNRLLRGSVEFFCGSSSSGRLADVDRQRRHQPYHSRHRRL
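Purified cruzain at 1.5 nM, pre-incubated 15 min with compound at room temperature in 100 mM sodium acetate pH 5.5, 5 mM DTT, 0.00005% Triton X-100. Reaction started with 2 uM Z-FR-AMC; AMC fluorescence increase over 60 s gives rate.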
Lassa entry inh = inhibitors of Lassa virus binding or cell entry. Lassa virus pseudotype entry inhibition, cell reporter; control for the full effect not named in the record. Potency, µM (titrated, usually from 37.9 µM), for the others: at the top dose activity change, negative = inhibition, usual class: inhibitors. 1.2% of 300,000 active; active means well fitted inhibition curve with a large enough effect; inconclusive means small, poorly fitted or top-dose-only effect, or effect the other way; inactive means flat fitted curve, though single readings scatter; tested in HEK293 cells; further: on the % scale 0 is the no-effect control and ±100 the full control effect; nearly all actives have a fitted effect of over 50% in size; luciferase read-out
MARV entry inh = Marburg virus entry inhibition; Marburg virus pseudotyped entry inhibition, cell reporter; control for the full effect not named in the record; about a third of the inactives were read at about 46 µM; Potency, µM (top dose mostly 37.8 µM), for inactives: at the highest dose activity change, negative = inhibition, most hits filed as inhibitors; 1.8% of 300,000 active; AID 540276; active = well fitted inhibition curve with a large enough effect; inconclusive = small, poorly fitted or top-dose-only effect, or effect the other way; inactive = flat fitted curve, though single readings scatter; tested in HEK293 cells; about a fifth of its hits are not listed in these tables; further: on the % scale 0 is the no-effect control and ±100 the full control effect; luciferase read-out
Cruzain Triton = cruzain (T. cruzi) inhibition with detergent | purified cruzain, Z-FR-AMC fluorescence, 0.01% Triton | Potency, µM, for the others: max response, negative = inhibition, actives largely listed as inhibitors | P25779 | 0.43% of 200,000 active; active means well fitted curve in the direction sought with a large enough effect; inconclusive means small, poorly fitted or top-dose-only effect, or another doubt; inactive means no such curve, though single readings can be large; an effect the other way counts as inactive or inconclusive;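 further: plate controls were neutral wells for no effect and buffer without enzyme for full effect; nearly all actives have a fitted effect of over 40% in size; top concentration of the series not given in the record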
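In this qHTS format, compounds are incubated with 1.5 nM cruzain for 15 min at room temperature before 2 uM Z-FR-AMC is added. Release of AMC is followed at 360/450 nm, and progress is taken as the 60 s fluorescence difference.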
2A StopGo = FMDV 2A StopGo reporter, luciferase signal; human cells with a luciferase reporter of 2A StopGo recoding; control for the full effect not named in the record; Potency, µM (series often up to 57.9 µM), for the others: at the top dose signal change, negative = less light; 1.2% of 410,000 active; AID 1159524; active = well fitted falling curve with a large enough effect; inconclusive = small, poorly fitted or top-dose-only effect; inactive = no such curve, though single readings can be large or run the other way; tested in HEK293T cells; further: on the % scale 0 is the no-effect control and ±100 the full control effect; nearly all actives have a fitted effect of over 45% in size; luciferase light after 4 h
NS1 inh = inhibitors of influenza NS1 protein function; S. cerevisiae slowed by influenza A NS1, growth recovery by OD600; AID 2326; 0.4% of 270,000 active; Potency, µM (doses to about 46.1 µM), for the others: at the highest dose activity, positive = more growth; further: actives are rising curves; nearly all actives have a fitted effect of over 50% in size
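S. cerevisiae expressing influenza A NS1, grown in glucose, washed, then diluted 1:100 into pH 6.0 -URA galactose medium with 23 nl compound. Growth recovery read as OD600; NS1-free strain serves as control.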
* = called active by the depositor; ? = inconclusive; · = not tested or not shown; & = joins results of further samples; [ ] = another dose, or the depositor's remark. Unless noted, the call rests on the fitted dose curve; in most records, active means well fitted rising curve with a large enough effect; inconclusive means small, poorly fitted or top-dose-only effect; inactive means no such curve, though single readings can be large or run the other way. Potency means the concentration at half of the fitted maximal effect.

SMILES	RE007 growth inh	SARS PLP yeast	Cruzain noTriton	Lassa entry inh	MARV entry inh	Cruzain Triton	2A StopGo	NS1 inh
CN1C(=O)C(C)(C)c2cc(S(=O)(=O)N3CCC(C(=O)NCc4ccccc4Cl)CC3)ccc21	13%	-2%	·	·	·	·	-1%	-8%
Cc1ccc(-n2ncc(C(=O)NCCN3CCN(C)CC3)c2C2CCN(C(=O)OC(C)(C)C)CC2)cc1	·	·	2%	-26%[46.1 µM]	·	-0.6%	-6%	·
Cc1nc2ccccn2c1C(=O)N/N=C/c1ccc2c(c1)OCO2	2%	10%	1%	?	-37%	-7.8%	7%	-3%
O=C(CN1C(=O)C2(SCC(=O)N2c2cccc(F)c2)c2ccccc21)NCc1ccccc1Cl (stereo not drawn)	·	·	-22%	-11%[46.1 µM]	·	-5.7%	-11%	·
O=C(N/N=C/c1c[nH]c2ccccc12)C1COc2ccccc2O1 (stereo not drawn)	-6%	-17%	19%	?	?	-15%	-25%	-6%
Clc1cccc(OCc2nnc(-c3ccccc3Br)o2)c1	-9%	-16%	·	-4%	-1%[46.1 µM]	·	33%[activator]	-35%
CC(OC(=O)CCOc1ccccc1)C(=O)Nc1ccc(Cl)cn1 (stereo not drawn)	-12%	-9%	·	·	·	·	-9%	-24%
COc1cccc(CN2CCNC(=O)C2CC(=O)N(C)C2CCCCC2)c1OC (stereo not drawn)	-18%	·	·	0%	4%	·	-6%	·
CCCCOCCCNC(=O)c1ccc2c(c1)OCO2	5%	-4%	-7%	6%	-14%	4.4%	16%	-17%
CCN(CC)C(=O)c1ccc(NC(=O)CN2CCc3cc(OC)c(OC)cc3C2)cc1	3%	1%	·	-3%	?	·	0%	-2%
Cc1ccc(Cn2c(SCC(=O)N/N=C/c3ccccc3OCC(=O)O)nc3ccccc32)cc1	12%	-4%	·	·	·	·	-15%	14%
Cc1cccc(OCC(=O)N2CCN(Cc3ccncc3)CC2)c1	-15%	17%	-4%	-8%	-3%	-1.0%	-4%	-1%

Next section; the last seven above are carried over.
SMILES	RE007 growth inh	SARS PLP yeast	Cruzain noTriton	Lassa entry inh	MARV entry inh	Cruzain Triton	2A StopGo	NS1 inh
Clc1cccc(OCc2nnc(-c3ccccc3Br)o2)c1	-9%	-16%	·	-4%	-1%[46.1 µM]	·	33%[activator]	-35%
CC(OC(=O)CCOc1ccccc1)C(=O)Nc1ccc(Cl)cn1 (stereo not drawn)	-12%	-9%	·	·	·	·	-9%	-24%
COc1cccc(CN2CCNC(=O)C2CC(=O)N(C)C2CCCCC2)c1OC (stereo not drawn)	-18%	·	·	0%	4%	·	-6%	·
CCCCOCCCNC(=O)c1ccc2c(c1)OCO2	5%	-4%	-7%	6%	-14%	4.4%	16%	-17%
CCN(CC)C(=O)c1ccc(NC(=O)CN2CCc3cc(OC)c(OC)cc3C2)cc1	3%	1%	·	-3%	?	·	0%	-2%
Cc1ccc(Cn2c(SCC(=O)N/N=C/c3ccccc3OCC(=O)O)nc3ccccc32)cc1	12%	-4%	·	·	·	·	-15%	14%
Cc1cccc(OCC(=O)N2CCN(Cc3ccncc3)CC2)c1	-15%	17%	-4%	-8%	-3%	-1.0%	-4%	-1%
COc1ccc2c(c1)OC/C(=C/c1cccs1)C2=O	-4%	-9%	-3%	5%	-1%	-5.0%	0%	-14%
Cc1ccc(S(=O)(=O)c2cn(CC(=O)Nc3ccccc3C)c3cc4c(cc3c2=O)OCO4)cc1	·	·	-24%	-9%[46.1 µM]	?	-2.9%	-2%	·
CN(C)Cc1c(C(=O)N/N=C/C=C/c2ccccc2)nnn1-c1nonc1N	-6%	22%	·	0%[46.1 µM]	-6%[46.1 µM]	·	-9%	?
Cc1ccccc1-c1noc(-c2ccc(NCc3ccco3)c([N+](=O)[O-])c2)n1	·	·	13%	-12%[46.1 µM]	29%[46.1 µM]	-10%	15%	·
c1ccc(N2CCN(c3ccccc3)C2c2cccnc2)cc1	-21%	-3%	-14%	0%	6%	-7.5%	10µM*	-6%
N#Cc1cc2cc3c(cc2nc1N1CCCCC1)OCCO3	-2%	2%	-10%	?	?	0.0%	7%	4%
CCNC(=O)C1Cc2ccccc2CN1S(=O)(=O)c1ccc(F)cc1 (stereo not drawn)	-5%	-1%	·	·	·	·	5%	-68%
CCOc1ccc(C2c3c(oc4cc(C)c(C)cc4c3=O)C(=O)N2c2ccccn2)cc1 (stereo not drawn)	·	·	10%	-17%[46.1 µM]	19%[46.1 µM]	-1.0%	1%	·
COc1ccc(Nc2cc(C(=O)NCc3cccs3)c3ccccc3n2)cc1	·	·	?	-4%[46.1 µM]	-1%[46.1 µM]	0.9%	7%	·
CC(C)C(NC(=O)COc1ccccc1)C(=O)O (stereo not drawn)	8%	-5%	-1%	7%	16%	1.9%	-15%	12%
Cc1ccc(SCCSc2nc(C)cc(=O)[nH]2)cc1	20%	-1%	·	·	·	·	35%[activator]	4%
CCC(C)(C)NC(=O)C(c1ccc(OC)cc1)N(C(=O)CCC(=O)Nc1cc(C)on1)c1cccc(F)c1 (stereo not drawn)	0%	4%	·	7.1µM*	?	·	-15%	8%
COC(=O)CCC(=O)N1CCOCCOCCN(C(=O)CCC(=O)OC)CCOCCOCC1	17%	5%	-14%	7%	7%	0.4%	-18%	5%
COc1ccc(S(=O)(=O)N2CCC3(CC2)CC(=O)c2ccccc2O3)cc1C	-1%	-3%	·	?	?	·	-16%	·
COC(=O)Cn1nc(-c2ccc(C)c(S(=O)(=O)N(C)C)c2)c2ccccc2c1=O	2%	1%	20%	-21%	-12%	-3.1%	15%	-1%
CCNC(=O)N(C(=O)NCC)n1c(C)nnc1C	3%	-5%	6%	9%	12%	3.6%	-8%	-10%
Clc1ccc2c(NCc3ccccn3)ncnc2c1	14%	-3%	-15%	1%	-4%	1.0%	-29%	-5%
CC(C)C(NC(=O)OCc1ccccc1)C(=O)OCC(=O)NCc1ccco1 (stereo not drawn)	-28%	8%	-12%	?	18%	-30%	-11%	-10%
O=C(COC(=O)Cc1n[nH]c(=O)c2ccccc12)Nc1cccc(C(F)(F)F)c1	1%	3%	·	18%[46.1 µM]	-7%[46.1 µM]	·	-12%	-4%
Oc1ccc(/C=N/Nc2ncc(Cl)cc2Cl)cc1	-4%	-4%	·	20%[46.1 µM]	11%[46.1 µM]	·	15%	-8%
c1ccc(-c2nc(NCc3cccnc3)c3oc4ccccc4c3n2)cc1	-24%	-20%	5%	?	?	-8.5%	-25%	-36%
CCCc1nnc(NC(=O)Cc2coc3c(C)c(C)ccc23)s1	·	·	-1%	3%[46.1 µM]	3%[46.1 µM]	0.1%	-20%	·
CC(=O)N1CCC(N2CCCC(C(=O)c3cccc(Cl)c3)C2)CC1 (stereo not drawn)	5%	0%	·	-16%	-6%[46.1 µM]	·	-12%	-2%
CSc1nc(-c2ccc(Cl)cc2)nn1C(=O)c1ccco1	-14%	8%	-29%	22%	1%	3.7%	36%[activator]	-10%
Cn1c(=O)n(Cc2ccccc2Cl)c(=O)c2c1nc1n2CCN1c1ccccc1	·	·	2%	-16%[46.1 µM]	·	-2.2%	-1%	·
Cc1cc(C)n(-c2ccc(C)c(Cl)c2)n1	1%	1%	1%	-5%	7%	-3.2%	9%	-1%
NNC(=O)CN1C(c2ccccc2Br)=Nc2ccc(Br)cc2C1c1ccccc1 (stereo not drawn)	1%	16%	0%	-1%	-9%	-20%	-15%	4.5µM*
COC(=O)c1ccccc1Oc1ccc(NC(=O)C(C)(C)CCl)cc1	7%	-4%	·	17%	-2%[46.1 µM]	·	-11%	·
COc1cccc(CNC(=O)CCCn2ncn3c(cc4occc43)c2=O)c1	-4%	0%	-13%	·	-5%&-5%[46.1 µM]	-1.4%	-11%&-8%	-4%
O=C(CSc1ccc2c(c1)OCCO2)Nc1ncc(Cl)cc1Cl	7%	7%	-6%	-1%	?	-1.0%	-22%	-14%
Cc1ccc(C(=O)Nc2ccc3c(c2)nc2n3CCSC2)cc1	-9%	-1%	-7%	?	?	2.5%	-32%	-45%
CC1CCCC(NC(=O)C2CCN(S(=O)(=O)N3CCC4(CC3)OCCO4)CC2)C1C (stereo not drawn)	16%	0%	7%	-2%	18%	-2.0%	-15%	-2%
CCCCC(=O)Nc1c(C(=O)N2CCN(c3ccccc3)CC2)oc2ccccc12	·	·	4%	-21%[46.1 µM]	?	-3.9%	44%[activator]	·
CCOC(=O)C1CCN(C(=O)CSc2cc(=O)n(CC)c3ccccc23)CC1	13%	-2%	1%	-22%[14.3 µM]	0%&-19%	10%	14%	-3%
CS(=O)(=O)N1CCN(C(=O)Cc2ccc([N+](=O)[O-])cc2)CC1	6%	3%	·	·	·	·	-19%	7%
NC(CCC(=O)NCS(=O)(=O)O)C(=O)O (stereo not drawn)	·	·	4%	·	?	-4.1%	-7%	-8%
COC(=O)c1ccc(Nc2cc(C)nc(-c3ccccc3O)n2)cc1	6%	2%	-21%	-11%	-3%	-0.4%	-18%	-2%
Cc1cc(C)cc(N2CCn3c2nc2c3c(=O)n(CCc3ccccc3)c(=O)n2C)c1	·	·	?	?	·	-3.1%	-29%	·
Cc1ccc(NC(=O)c2ccc3c(c2)OCO3)cc1Cl	-7%	-6%	·	·	·	·	35%[activator]	-57%
O=C(CCC(=O)N1CCOc2ccccc21)Nc1ccccc1Cl	-10%	-3%	·	·	·	·	-9%	-9%
COc1cc(C2CC(=O)N(CC(=O)NCC3CCCO3)c3ccccc3S2)cc(OC)c1OC (stereo not drawn)	-18%	1%	·	2%[46.1 µM]	11%[46.1 µM]	·	-2%	-9%
O=C(O)CC(Cc1ccc(Cl)cc1)C(=O)NCc1ccccc1 (stereo not drawn)	0%	-12%	-1%	2%	1%	0.1%	-10%	6%
